Arbovirus anti: arbovirus infection inhibition; actives 0.37% (n = 200,000); arbovirus infection cell-based antiviral screen; inhibition, % at 10 µM;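 active = inhibition from about 30%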;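 also: bluetongue infection of BSR cells; cell survival read as ATP light after 72 h; 0% = infected wells without compound and 100% = uninfected wells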
Mtb betalactam: beta-lactam sensitization of Mtb H37Rv | M. tuberculosis H37Rv growth with meropenem, percent inhibition; hits of this screen are not shown here | inhibition, % at 25 µM | actives 0.27% (n = 330,000);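 active = about 74% or more and at least 40 points above the plate without the antibiotic, then above 30% in a dose series; inconclusive = first-round hits that could not be retested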;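 also: growth measured after seven days incubation then overnight dye step; 0% = bacteria only wells and 100% = bacteria with antibiotic; twin plates without the antibiotic show which effects depend on it; some results filed as inactive read as strong as hits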
YopH inh: blocks Yersinia enterocolitica YopH tyrosine phosphatase. inhibition, %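 (about 10 µM by stock and volumes)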. fluorescence Ex485/Em525. actives 0.16% (n = 140,000);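 active = inhibition of 50% or more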;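 also: controls were vehicle for no effect and minimum signal wells for full effect; inactives centre near -20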
Mtb growth: M. tuberculosis H37Rv growth inhibitors, H37Rv strain (AID 1626); M. tuberculosis H37Rv growth inhibition; higher % means a stronger effect; inhibition, % at 10 µM, or IC50 in µM where a hit was titrated; actives 0.95% (n = 220,000);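 active = confirmed in a dose series; inconclusive = inhibition above 80% but not taken into the dose series; inactive = below 80% or under 30% at every dose of the series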;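 also: bacteria incubated seven days before Alamar blue readout; 0% = bacteria only wells and 100% = bacteria with antibiotic wells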
RecA intein inh: Mtb RecA intein splicing inhibition | actives 0.75% (n = 290,000) | inhibition, %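 (about 9 µM by stock and volumes)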 | P9WHJ3 | cell-free RecA intein splicing, fluorescence; in the data active = inhibition above about 30%; inconclusive = no clear call, values can overlap the other calls;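 also: 0% = vehicle wells and 100% = reference inhibitor control wells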
Target sequence (P9WHJ3 whole entry, looked up): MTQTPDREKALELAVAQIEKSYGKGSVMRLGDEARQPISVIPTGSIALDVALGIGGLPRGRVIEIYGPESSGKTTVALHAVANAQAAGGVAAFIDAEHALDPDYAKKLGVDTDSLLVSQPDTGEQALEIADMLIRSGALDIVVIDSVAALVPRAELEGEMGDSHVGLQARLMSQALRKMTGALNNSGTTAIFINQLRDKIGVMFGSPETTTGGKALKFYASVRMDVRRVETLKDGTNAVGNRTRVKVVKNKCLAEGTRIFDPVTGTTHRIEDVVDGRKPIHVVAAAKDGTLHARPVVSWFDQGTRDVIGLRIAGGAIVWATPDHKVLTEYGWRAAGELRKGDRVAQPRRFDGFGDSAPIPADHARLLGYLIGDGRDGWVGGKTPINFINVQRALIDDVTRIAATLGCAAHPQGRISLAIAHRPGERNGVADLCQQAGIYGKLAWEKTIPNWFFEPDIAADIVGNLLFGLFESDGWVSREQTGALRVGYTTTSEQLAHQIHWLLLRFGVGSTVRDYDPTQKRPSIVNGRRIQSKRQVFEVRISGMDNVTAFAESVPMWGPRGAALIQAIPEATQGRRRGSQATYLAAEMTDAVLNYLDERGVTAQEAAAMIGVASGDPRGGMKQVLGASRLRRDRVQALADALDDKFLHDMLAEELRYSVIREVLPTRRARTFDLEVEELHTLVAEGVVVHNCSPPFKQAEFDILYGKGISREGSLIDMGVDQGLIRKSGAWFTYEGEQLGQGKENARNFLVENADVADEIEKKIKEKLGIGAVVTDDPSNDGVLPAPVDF
Arbovirus anti repeat: also measured in Arbovirus anti; calls as there; inhibition, %; measured here: 10K subset replicate screen; many hits read low in the repeat;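 first of two repeat runs on a subset; 0% = infected and 100% = uninfected wells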
An asterisk follows results filed as active; ? = inconclusive; · = not tested or not shown. This is a subset; count on the stated rates, not on these rows.

SMILES	Arbovirus anti	Mtb betalactam	YopH inh	Mtb growth	RecA intein inh	others
O=C1NCCc2c1[nH]c1c(Cl)ccc(Cl)c21	10	4	-46	12%	-0.8
COc1ccc(C)cc1NC(=O)CCNS(=O)(=O)c1ccc2c(c1)CC(C)N2C(C)=O (centres undefined)	·	-1	·	·	-1.1
COc1ccc(Br)cc1CNC(=O)CCC(=O)n1nc(C)c2ccccc21	·	-2	·	·	1.2
CC1CCCCN1C(=O)Cc1ccc(Cl)cc1 (centres undefined)	-1	0	1	4%	-0.2
CN(C)C(CNC(=O)C1CCN(S(=O)(=O)c2ccccc2)CC1)c1ccccc1 (centres undefined)	·	-10	·	-2%	-1.0
COc1ccc(CNCc2cccc(OC)c2OC)cc1Br	12	2	·	10%	2.3
O=C(O)c1cccc(S(=O)(=O)N(Cc2ccccc2)c2cccc(C(F)(F)F)c2)c1	·	-7	·	·	5.6
CCCCN(CC)CCCNC(=O)c1cc2c(=O)n(CC)c3ccccc3c2s1	·	3	·	·	1.3
CCOc1ccc(Br)cc1S(=O)(=O)Nc1cccc(S(=O)(=O)N(C)C)c1	15	4	-26	-4%	0.0
CC(C)(C)NS(=O)(=O)c1ccc(CCC(=O)Nc2ccc3c(c2)OCO3)cc1	-7	2	-24	0%	4.2
O=C(c1cc(Br)ccc1Cl)N1CCC2(CC1)OCCO2	-5	?	-35	-5%	-0.2
COc1ccc(CCNC(=O)CCc2nc3ccccc3[nH]2)cc1OC	-7	-2	·	-12%	-2.8
Cc1ccc(C(=O)OCC(=O)NCC2CCCO2)c(C)c1 (centres undefined)	-4	3	·	-3%	-0.5
COc1ccccc1NC(=O)CCCc1c[nH]c2ccccc12	0	3	-33	0%	1.4
COc1cccc2cc(C(=O)N3CCN(c4ccccc4F)CC3)c(=O)oc12	7	-3	-19	-4%	2.9
CCCOc1ccc(C(=O)NCC(c2cccs2)N(C)C)cc1 (centres undefined)	2	-9	-14	10%	1.3
CC(=O)c1ccc(-c2nc3c4ccccc4ccn3c2C(C)=O)o1	-5	-5	-41	·	-3.2
COC(=O)c1cc(Br)cn1S(=O)(=O)c1ccccc1	·	5	·	·	0.0
CCOc1ccc(C(C)NC(=O)CCC(=O)O)cc1 (centres undefined)	-1	5	-19	-15%	·	Arbovirus anti repeat=-2
Cc1nn(Cc2cccc3ccccc23)c(C)c1NC(=O)c1cccnc1	5	-3	·	5%	-1.1
Cn1c(Cc2cccs2)nnc1SCC(=O)N1CCc2ccccc21	-8	5	-15	8%	4.5
CC(C)CCOc1ccc(C(=O)NCC(c2cccs2)N2CCOCC2)cc1 (centres undefined)	·	-1	·	·	4.8
O=[N+]([O-])c1ccc(Cl)c(/C=N/N2CCN(Cc3ccc(Cl)cc3)CC2)c1	0	20	15	3%	3.1
Cc1cc(NS(=O)(=O)c2ccc(C3CCCCC3)cc2)no1	-2	-1	-18	-1%	2.9
O=C(C[n+]1ccsc1)c1ccccc1	4	4	-27	-6%	-1.8
CC(C(=O)NCCS(=O)(=O)c1ccc(Cl)cc1)S(=O)(=O)c1ccc(Cl)cc1 (centres undefined)	1	0	·	-1%	-4.6
Cc1ccccc1NC(=O)C1CCCN(S(=O)(=O)c2ccc3c(c2)C(C)(C)C(=O)N3C)C1 (centres undefined)	·	-4	·	·	1.3
CCCCn1c(N)c(N(Cc2ccccc2OC)C(=O)c2ccc([N+](=O)[O-])s2)c(=O)[nH]c1=O	·	-2	·	·	1.9
CCC1CCc2sc(C(=O)N3CCN(c4ccccn4)CC3)cc2C1 (centres undefined)	·	3	·	·	1.6
COC(=O)c1cc2c(C)cc3ccc(C)cn3c-2c1C(=O)OC	-7	-8	-12	-3%	-3.6
C#CCN1C(=O)S/C(=C/C=C/c2ccc(N(C)C)cc2)C1=O	-13	9	-24	-3%	·
CCC(C)[C@H]1CN=C(N)N1CC1CCCCC1 (some centres undefined)	·	-3	·	7%	-0.4
O=C(c1cccc(S(=O)(=O)N2CCOCC2)c1)N1CCOCC1	9	-11	-42	3%	3.5	Arbovirus anti repeat=1
CC(C)(C)c1ccc(-c2nnc(SCCC#N)n2C2CCCC2)cc1	-22	6	4	0%	4.6
Cc1ccc(S(=O)(=O)N/N=C\c2ccc(C)o2)cc1	7	-3	-26	4%	0.0
COc1ccccc1NC(=O)Cn1nnc(-c2ccccc2NC(=O)c2cnccn2)n1	2	0	·	6%	0.0
O=C(O)c1nccnc1C(=O)Nc1ccc(Oc2c(Cl)cccc2Cl)nc1	·	-3	·	4%	0.7
CC(C)Cn1cnc2c1c(=O)n(CC(O)c1ccccc1)c(=O)n2CC(C)C (centres undefined)	-17	-7	0	-5%	-4.1
CCc1ccc(CN2CCCC(C(=O)c3sccc3C)C2)o1 (centres undefined)	5	8	·	2%	2.5
O=c1c2ccccc2nc(COc2ccccc2)n1/N=C/c1ccc(O)cc1O	·	2	·	1%	14
COc1ccc(/C=N/NC(=S)Nc2cc(C(F)(F)F)ccc2Cl)cc1	·	19	·	-4%	-5.5
CC(C)(C)NCc1ccc(OCc2cccs2)cc1	-10	7	·	-1%	-3.9
Cc1cc(C)n(CCN(C)c2nc3nonc3nc2N2CCCCC2)n1	-1	3	·	0%	-1.2
COc1cccc(C(=O)NCCSc2ccc(C)cc2)c1	12	11	-1	7%	-3.1
Cc1cc(C)n(CC(=O)N2CCCC(N3CCN(c4ccc(F)cc4)CC3)C2)n1 (centres undefined)	·	-12	·	·	-1.8
O=C(CSCc1cc(=O)n2nc(C3CC3)sc2n1)Nc1ccc(F)cc1	·	-4	·	·	-1.3
CSC1=C(C#N)C(c2ccc3c(c2)OCO3)C2=C(CCCC2=O)N1 (centres undefined)	14	5	-17	0%	0.6
COc1cccc(/C(O)=C/c2nc3ccc(C(=O)NCCc4cccc(C)c4)cc3[nH]c2=O)c1	-14	5	-23	5%	-7.4
CCCN1C(=O)C(NS(=O)(=O)c2ccc(N)cc2)(C(F)(F)F)C(C(=O)OC)=C1C (centres undefined)	1	-2	2	-6%	1.0
Cc1cccc(OCCn2c(=O)oc3ccc(C)cc32)c1	3	11	·	11%	-0.5
Cc1c(C(=O)N2CCOCC2)c(S(=O)(=O)Nc2ccccc2F)c(C)n1C	·	-8	·	·	4.0
Cc1ccc(S(=O)(=O)NCc2ccccc2)cc1C(=O)NC1CCCCC1	·	-13	·	·	5.9
COC(=O)c1ccccc1-c1ccc(/C=N/Nc2nc(N3CCCC3)nc(N3CCCC3)n2)o1	·	83	·	?	-2.8
O=C(O)c1ccccc1C(=O)Nc1ccc(Nc2ccc([N+](=O)[O-])cc2[N+](=O)[O-])cc1	·	10	·	·	1.4
CC(=O)Nc1ccc(NC(=O)C(C)OC(=O)c2cccc(S(=O)(=O)N3CCCCC3)c2)cc1 (centres undefined)	·	-7	·	·	4.3
Cc1sc(NC(=O)CSc2nc(N)cc(N)n2)c(C#N)c1C	·	-3	·	-7%	-0.7
CCOCCCNC(=O)c1cn(CC)c2ccc(S(=O)(=O)N3CCC(C)CC3)cc2c1=O	·	5	·	·	-7.1
O=C1NC(c2cccc(Cl)c2)Nc2ccccc21 (centres undefined)	-9	-1	·	-4%	·
N#Cc1nc(COc2ccccc2)oc1N1CCCCC1	1	-4	-44	8%	0.9	Arbovirus anti repeat=-2
Cc1ccc(S(=O)(=O)c2ccc(Oc3ccccc3)cc2)cc1	9	3	-42	-2%	-3.7
Continued:
SMILES	Arbovirus anti	Mtb betalactam	YopH inh	Mtb growth	RecA intein inh	others
COc1ccc(C)cc1NC(=O)Nc1ccc(Br)cn1	3	-6	-21	-2%	0.4
O=C(N=Nc1c(O)[nH]c2ccccc12)c1cc(-c2ccc(F)cc2)n[nH]1	-1	-2	·	2%	·
O=C(CC(=O)Nc1cccc(Cl)c1Cl)Nc1cccc(Cl)c1Cl	·	-6	·	·	-0.2
O=C(CN1CC[n+]2c(-c3cccs3)csc21)c1ccc(-c2ccccc2)cc1	-17	8	·	5%	16
COc1ccc(CN(C(=O)Cn2nnc3ccccc32)C(C(=O)NC(C)(C)C)c2ccco2)cc1 (centres undefined)	-2	9	0	1%	-2.8
CC(C)c1csc(CN2CCC(N3CCC(C(=O)N4CCOCC4)CC3)CC2)n1	-18	-5	·	-4%	-3.3
O=S(=O)(c1cccs1)N1CN(C2CCCCC2)c2nc3ccccc3nc21	·	-10	·	11%	11
CC[N+](CC)(CC)CCCCCCCCCC[N+](CC)(CC)CC	-3	1	-32	-8%	-0.7
CCN(CC)CCNC(=O)c1cn(C)c2ccc(S(=O)(=O)N(C)C3CCCCC3)cc2c1=O	-6	-4	·	-7%	9.8
CCn1c(CNC(=O)c2ccco2)nnc1SCC(=O)c1ccc(OC)cc1	3	0	·	-7%	-0.7
CCC(C)(NC=O)C(=O)Nc1c(C)cccc1C (centres undefined)	·	0	·	0%	-0.6
[N-]=[N+]=NC[C@H](c1ccccc1)N1CCN(Cc2ccccc2)CCC1=O	·	-5	·	·	-0.6
O=C1N/C(=N\N=C\c2ccco2)SC1Cc1ccccc1[N+](=O)[O-] (centres undefined)	·	21	·	9%	3.0
Cc1ccc(C)c(CN2CCC(CNC(=O)Nc3ccc(C)c(C)c3)CC2)c1	·	8	·	·	-0.6
C=CCc1cccc2cc(C(=O)NC3=C(C#N)CCC3)c(=O)oc12	1	68	1	39%	-1.5

As a short view, part of the list above:
SMILES	Arbovirus anti	Mtb betalactam	YopH inh	Mtb growth	RecA intein inh	others
CCN(CC)CCNC(=O)c1cn(C)c2ccc(S(=O)(=O)N(C)C3CCCCC3)cc2c1=O	-6	-4	·	-7%	9.8
CCn1c(CNC(=O)c2ccco2)nnc1SCC(=O)c1ccc(OC)cc1	3	0	·	-7%	-0.7
CCC(C)(NC=O)C(=O)Nc1c(C)cccc1C (centres undefined)	·	0	·	0%	-0.6
[N-]=[N+]=NC[C@H](c1ccccc1)N1CCN(Cc2ccccc2)CCC1=O	·	-5	·	·	-0.6
O=C1N/C(=N\N=C\c2ccco2)SC1Cc1ccccc1[N+](=O)[O-] (centres undefined)	·	21	·	9%	3.0
Cc1ccc(C)c(CN2CCC(CNC(=O)Nc3ccc(C)c(C)c3)CC2)c1	·	8	·	·	-0.6
C=CCc1cccc2cc(C(=O)NC3=C(C#N)CCC3)c(=O)oc12	1	68	1	39%	-1.5

Carrying on:
SMILES	Arbovirus anti	Mtb betalactam	YopH inh	Mtb growth	RecA intein inh	others
Cc1cccc(NS(=O)(=O)c2cccc(C(=O)NCC(C)(C)N3CCOCC3)c2)c1	·	-4	·	·	-1.0
O=C(CCN1C(=O)C2CCCCC2C1=O)Nc1ccc(F)c(F)c1F (centres undefined)	4	5	·	-5%	-3.8
Cc1ccc(C2C(C#N)C(C#N)N3CCCN23)cc1 (centres undefined)	2	-4	19	-2%	0.0
O=c1c2ccccc2c(C=NCCCN2CCOCC2)c(O)n1Cc1ccccc1	-7	3	-43	1%	4.0
CCCCNC(=O)c1cccnc1SCC(=O)Nc1ccccc1OC	11	-1	-13	?	0.6
N#C/C(=C\c1cccc(OC(=O)c2cccs2)c1)C(N)=O	-4	60	40	80%	20
CCOc1ccc(Oc2ccc(NC(=O)[C@@H](NC(N)=O)[C@@H](C)CC)cc2)cc1	·	-4	·	·	-3.6
COc1cccc(NC(=O)CCN2C(=O)c3ccc([N+](=O)[O-])cc3C2=O)c1	14	0	·	4%	-5.5
COCCSc1ccccc1C(=O)Nc1cc([N+](=O)[O-])ccc1OC	5	5	·	4%	-2.8
CC(=O)NCCNC(=O)c1cc(-c2cccc3ccccc23)nc2ccccc12	·	-9	·	·	5.0
COc1ccc(-c2ccc(NCCN3CCOCC3)nn2)cc1OC	·	7	·	·	-2.4

Among those listed so far, these have a CF3 group.
SMILES	Arbovirus anti	Mtb betalactam	YopH inh	Mtb growth	RecA intein inh	others
O=C(O)c1cccc(S(=O)(=O)N(Cc2ccccc2)c2cccc(C(F)(F)F)c2)c1	·	-7	·	·	5.6
COc1ccc(/C=N/NC(=S)Nc2cc(C(F)(F)F)ccc2Cl)cc1	·	19	·	-4%	-5.5
CCCN1C(=O)C(NS(=O)(=O)c2ccc(N)cc2)(C(F)(F)F)C(C(=O)OC)=C1C (centres undefined)	1	-2	2	-6%	1.0
